HIV Env fusion = inhibitors of HIV Env-mediated cell fusion | HeLa-JRFL Env/CEM21 cell fusion, luciferase | inhibition, % at 12.3 µM | actives 1.1% (n = 360,000) | AID 651610;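 active means mean replicate inhibition score of at least 50 and every replicate individually at or above 50; inconclusive means only one of the two criteria met; inactive means mean below 50 and not all replicates reaching 50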;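 further: 0% = plate neutral controls and 100% = maraviroc near 300 nM; one replicate is shown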
Rce1 inhib = inhibitors of yeast Ras-converting enzyme. Q03530. yeast membranes, quenched prenylated peptide cleavage fluorescence. calls only. actives 0.27% (n = 290,000). AID 2563;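 active means fall in fluorescence gain of 50% or more versus controls, with final raw signal at or below 3038400; inconclusive means same 50% fall but final raw signal above 3038400; inactive means fall in fluorescence gain under 50%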;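 further: plate controls were neutral control wells for no effect and wells lacking membranes for full effect; tested at 10 µM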
Target sequence (Q03530 whole entry, looked up): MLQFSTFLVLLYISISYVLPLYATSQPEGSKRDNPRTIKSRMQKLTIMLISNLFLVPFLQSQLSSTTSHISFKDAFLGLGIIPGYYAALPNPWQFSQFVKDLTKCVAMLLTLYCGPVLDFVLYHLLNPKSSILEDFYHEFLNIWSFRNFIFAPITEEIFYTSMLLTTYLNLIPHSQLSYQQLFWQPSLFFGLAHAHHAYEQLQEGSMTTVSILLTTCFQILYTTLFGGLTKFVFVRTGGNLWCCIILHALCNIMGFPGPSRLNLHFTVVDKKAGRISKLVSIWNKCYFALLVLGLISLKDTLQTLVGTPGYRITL
CSC inhib = cancer stem cell inhibition | AID 2717 | cancer stem cell-like cells viability, luminescence | inhibition, % at 7.5 µM | actives 1.1% (n = 300,000);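 active means mean at 75% or more and at least half the replicates too; inconclusive means mean and replicates disagree; tested in HMLE shEcad cells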;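 further: 0% = median of negative and 100% = median of positive control wells; the first replicate is given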
UUG fidelity = modulators of start codon recognition fidelity in yeast. actives 0.13% (n = 350,000). activity score, % at 18.7 µM. S. cerevisiae UUG-firefly luciferase reporter, luminescence/redox ratio;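 active means replicate mean at a twofold rise or more, about +100% in these data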;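 further: firefly luciferase made from a UUG start codon reports start codon fidelity; reporter light over untreated wells divided by growth signal over untreated wells; some hits fall short of that in this replicate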
PABP polyA inh = PABP-poly(A) binding inhibition; inhibition, % at 35 µM; actives 1% (n = 290,000); PABP-poly(A) RNA binding, fluorescence polarization; P11940; AID 2014;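 active means 50% or more with normal probe brightness, or confirmed in later tests; inconclusive means above 50% with abnormal brightness, or retests that disagree; inactive means below 50% or failed in later tests; about a fifth of its hits are not listed in these tables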;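 further: calls also rest on retests at 20 µM and on dose response follow-up; controls were probe without protein and protein plus probe with vehicle; some compounds called inactive have numbers as strong as hits; many hits fall short of the cut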
Target sequence (P11940 whole entry, looked up): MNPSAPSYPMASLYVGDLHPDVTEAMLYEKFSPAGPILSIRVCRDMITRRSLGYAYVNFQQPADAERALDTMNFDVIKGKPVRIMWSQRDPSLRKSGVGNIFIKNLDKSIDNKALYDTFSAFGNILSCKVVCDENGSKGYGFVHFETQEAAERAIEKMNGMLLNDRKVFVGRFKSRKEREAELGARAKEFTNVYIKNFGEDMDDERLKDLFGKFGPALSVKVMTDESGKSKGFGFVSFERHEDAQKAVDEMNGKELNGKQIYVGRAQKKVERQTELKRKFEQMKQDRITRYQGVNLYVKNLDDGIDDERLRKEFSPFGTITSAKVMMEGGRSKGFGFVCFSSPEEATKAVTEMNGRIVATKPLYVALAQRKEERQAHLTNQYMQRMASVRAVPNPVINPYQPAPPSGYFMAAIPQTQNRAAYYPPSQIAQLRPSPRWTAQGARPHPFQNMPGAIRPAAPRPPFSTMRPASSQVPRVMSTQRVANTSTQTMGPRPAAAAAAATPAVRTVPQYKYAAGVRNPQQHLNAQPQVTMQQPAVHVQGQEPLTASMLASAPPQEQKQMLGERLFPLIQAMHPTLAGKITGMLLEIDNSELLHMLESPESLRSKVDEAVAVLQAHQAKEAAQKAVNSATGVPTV
MT1-MMP act inh = blocks activation of human MT1-MMP. P50281. HT1080 RFP-PRO-GFP cells, GFP/RFP ratio fluorescence, overnight; percent of plate control window, DMSO zero. GFP/RFP ratio change, % at 20 µM. actives 0.061% (n = 360,000);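 active means GFP/RFP ratio change of at least 30% with cell ATP level not reduced by more than half and red fluorescence within 50% of control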; further: strong numbers were not always called active
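Assay system: RFP-PRO-GFP reporter HT1080 cells; read-out basis: GFP/RFP fluorescence ratio; benchmarks: DMSO wells and RFP-L50D-GFP cells; doses: 20 µM single dose, 1% DMSO; schedule: overnight cell settling, then overnight compound exposure, 37 °C, 5% CO2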
eIF4H inh = inhibitors of RNA binding by human eIF4H; Q15056; eIF4H fluorescence polarization binding assay; inhibition, % at 35 µM; actives 0.94% (n = 290,000);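 active means 50% or more with normal probe brightness, or confirmed in later tests; inconclusive means above 50% with abnormal brightness, or retests that disagree; inactive means below 50% or failed in later tests; about a fifth of its hits are not listed in these tables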;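 further: calls also rest on retests at 20 µM and on dose response follow-up; 0% = protein and probe with vehicle and 100% = probe without protein; strong numbers were not always called active; many hits fall short of the cut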
eIF4H inh retest = also measured in eIF4H inh; calls as there; inhibition, %; compound at 20 µM; confirmation average;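 mean of two retest wells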
PABP polyA inh retest = second read-out of PABP polyA inh, no call of its own (marks repeat the call); inhibition, %; compound at 20 µM; confirmation repeats;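 mean of two retest wells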
MT1-MMP act inh RFP = recorded beside MT1-MMP act inh, whose call it bears; RFP signal change, %; measured here: RFP expression control read;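 0 = vehicle wells; hits needed this value within 50% of zero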
Active calls of the source: *; i = inactive; ? = inconclusive; · = not tested or not shown. Only part of the results is shown; the hit share may differ from the screen's.

SMILES	HIV Env fusion	Rce1 inhib	CSC inhib	UUG fidelity	PABP polyA inh	MT1-MMP act inh	MT1-MMP act inh RFP	eIF4H inh	others
COc1ccc(C2C=C(C34CC5CC(CC(C5)C3)C4)NC(=S)N2)cc1OC (configuration not stated)	·	i	-35	-23	-11	8	3	0
Cc1c(C)n2c(SCC(=O)N3CCCC3)nnc2[nH]c1=O	13	i	-6	-9	·	0	3	·
COCCCNCC#CCOc1ccc(OC)cc1	7	i	-29	·	-10	-3	2	28
C=CCNC(=O)c1c(CS(=O)(=O)c2ccccc2)noc1C(=O)NCc1ccccc1	-32	·	-25	-14	·	0	3	·
Cc1cccnc1NC(=O)Nc1cccs1	-115	i	-7	11	1	7	-1	6
O=C(CCNc1ccc(F)c(Cl)c1)c1ccco1	·	i	26	-8	19	6	-5	8
C=CCc1cc(Cl)ccc1OCCOCCN(C)C	10	i	29	1	2	-2	-7	5
COC(=O)c1ccc(COn2c(=O)c(C)[n+]([O-])c3ccccc32)cc1	-167	i	-3	-22	-4	-162	4	2
CCOC(=O)c1cc(S(=O)(=O)N2CCN(Cc3ccccc3)CC2)cn1C	15	i	-13	3	-6	7	-3	-4
CCc1ccc(CN2CCC(n3nccc3NC(=O)c3cccc(F)c3)CC2)cc1	-3	i	-2	-4	16	3	-3	-1
Cc1ccc(NC(=O)c2ccc(Cl)c(S(=O)(=O)NCC3CCCO3)c2)c(O)c1 (configuration not stated)	-5	i	5	-8	7	5	-6	-6
CC1=CC(=C(C#N)c2nc3ccccc3s2)C=C(C)N1c1ccc(F)cc1F	3	i	10	·	-10	-71	-5	?
Cn1nc(-c2ccc(N3CCN(CCO)CC3)c([N+](=O)[O-])c2)c2ccccc2c1=O	13	i	41	·	0	-4	-5	6
COC(=O)C(NC(=O)c1ccc(C)cc1)(Nc1cccc(C)n1)C(F)(F)F (configuration not stated)	33	i	-2	3	-6	0	1	-1
Cc1cc(C)c2c(N)c(C(=O)c3ccc(Br)cc3)oc2n1	5	i	1	·	-4	5	2	-14
Cc1cc(C(=O)C(C)OC(=O)c2ccc(NC(=O)CC#N)cc2)c(C)n1-c1ccc(OC(F)F)cc1 (configuration not stated)	15	·	49	-7	·	9	-27	·
O=c1[nH]snc1N1CCOCC1	-3	i	-7	-10	-7	2	2	0
CCC(=O)N(CCc1ccccc1)Cc1cc2cc(C)ccc2[nH]c1=O	-1	i	7	-5	8	-4	-9	0
CCOC(=O)CSc1ncnc2c(C(=O)OCC)c3n(c12)CCC3	-4	i	-12	·	56	3	2	6	eIF4H inh retest=-6;PABP polyA inh retest=-3
COc1cccc(C2NC(c3cccc(OC)c3O)C(C)C(=O)C2C)c1O (configuration not stated)	·	i	-3	-17	-5	6	-1	-5
COCc1cc(N2CCOCC2)nc(SCc2ccc(Cl)cc2)n1	13	i	1	·	-15	-1	-1	4
CC(C)C(=O)Nc1nnc(CCN2CCOCC2)s1	-45	i	·	-17	3	3	6	-7
COc1ccc(C(=S)N2CCOCC2)cc1OC(=O)c1ccc([N+](=O)[O-])cc1	-4	i	-4	-12	0	-2	0	72	eIF4H inh retest=10;PABP polyA inh retest=1
CCOC(=O)N1CCN(C(=O)c2ccc3c(Cl)c4c(nc3c2)CCCC4)CC1	0	i	3	3	·	1	-1	·
O=C(OCc1cccc2ccccc12)C1CC(=O)N(c2ccccc2)C1 (configuration not stated)	42	i	·	-15	-7	1	2	2

The results go on:
SMILES	HIV Env fusion	Rce1 inhib	CSC inhib	UUG fidelity	PABP polyA inh	MT1-MMP act inh	MT1-MMP act inh RFP	eIF4H inh	others
O=C(NCc1ccccc1)/C(=C\c1ccc(O)cc1)NC(=O)c1ccco1	2	i	-2	-11	2	-1	4	-7
O=C(CSc1ncnc2c1oc1ccccc12)OCc1ccccc1	·	i	-9	·	19	-5	3	12
O=C(NCc1ccco1)c1cc(-c2cccc(Cl)c2)on1	-127	i	·	·	-7	1	-5	-9
Cc1ccc(C(=O)NC(=S)NCc2ccccc2)cc1Br	17	i	·	5	·	3	2	·
O=C(Nc1nnc(CCN2CCCCC2)s1)C1CCCCC1	·	i	33	-7	4	-2	6	3
CNC(=O)C(C)Sc1ccc(S(=O)(=O)N2CCOCC2)cn1 (configuration not stated)	·	·	17	-10	·	4	-1	·
Cc1cc2c(cc1S(=O)(=O)CCC(=O)NCc1ccccc1)OCC(=O)N2	17	i	-6	-12	0	-1	5	-9
COc1ccc(C(=O)NC(=S)Nc2ccc(CN3CCCCC3)cc2)cc1Cl	2	i	·	·	-4	3	0	1
Cc1c(N)cccc1-n1cccc1	7	i	-1	·	-5	1	0	33
O=S(=O)(/N=C(/Nc1ccccc1)c1ccccc1O)c1ccccc1	-7	i	16	·	-4	7	-2	7
CC(NC(=O)CNC(=O)OCc1ccccc1)C(=O)N1CC(O)CC1C(=O)OCc1ccccc1 (configuration not stated)	·	i	-16	·	-15	1	-2	-5
CCN(C[C@H]1N[C@@](CC)(C(=O)OC)[C@H]2C(=O)N(C)C(=O)[C@@H]12)C(=O)Nc1ccc(Cl)cc1	-100	·	·	-12	·	7	0	·
CS(=O)(=O)NCCSc1cc(C(F)(F)F)nc2ccccc12	-4	i	6	·	84*	-4	2	64*
CC(C)(C)C1=C(C#N)C(c2cc3c(cc2Br)OCO3)C(C#N)=C(N)O1 (configuration not stated)	·	i	·	·	18	-1	1	47
CCOC(=O)N(C)c1ccc(C(O)(C(F)(F)F)C(F)(F)F)cc1	·	·	14	86	5	10	-4	-12
COc1ccc(N2CCN(CC(O)COCCOc3ccc(Br)cc3)CC2)cc1 (configuration not stated)	-12	i	23	·	-12	-1	-2	-8
CCc1noc(C)c1C(=O)OCC(=O)N(CC)c1c(N)n(Cc2ccccc2)c(=O)[nH]c1=O	·	i	·	-11	·	-2	2	·
COc1cccc(C(=O)Nn2c(-c3cccs3)nc3ccccc3c2=O)c1OC	1	i	-1	·	-8	-4	-2	-8
CC[N+](CC)(CC)CCC(O)(c1ccccc1)C1CCCCC1 (configuration not stated)	11	·	-1	-28	·	0	-1	·
COc1ccc(CN(Cc2ccco2)S(=O)(=O)c2ccc(S(=O)(=O)N3CCCC3)cc2)cc1	23	i	-11	-21	-8	6	5	-7
Cc1ccc2c(c1)c1c3n2CCN(C(=O)C2CC2)C3CCC1 (configuration not stated)	-60	i	3	-13	34	-3	-3	16
Cc1cccc(-c2c3c(=O)n(C)c(=O)n(C)c3cn2C(C)C)c1	·	i	-10	-5	15	8	4	-2
O=C(c1ccc(-c2ccccc2)cc1)c1ccccc1C(=O)N1CCOCC1	-7	i	-14	-3	2	2	-1	-8
COCCNC(=O)c1sc2nc(-c3ccccc3)cn2c1C	7	i	-1	-21	4	2	-2	-7
CCOc1ccc(S(=O)(=O)n2c([N+](=O)[O-])cnc2C)c(C)c1C	18	i	-9	-11	-2	-1	1	-2

(listing goes on)
SMILES	HIV Env fusion	Rce1 inhib	CSC inhib	UUG fidelity	PABP polyA inh	MT1-MMP act inh	MT1-MMP act inh RFP	eIF4H inh	others
COc1cccc(CN2CCC(C(=O)Nc3ccc(Oc4cccnc4)cc3)CC2)c1	·	i	·	-8	-5	4	-1	2
O=C(NCC1CC1)C1(S(=O)(=O)c2ccccc2)CC=CC1	13	i	-6	-20	-9	0	5	-7
Cc1cc(OCCN2CCCC2)ccc1[N+](=O)[O-]	·	i	0	-13	4	4	6	0
COc1cccc(NC(=S)NC(=O)c2c(Cl)c(C)nn2C)c1	-19	i	-3	·	20	2	2	1
CCOC(=O)C1CCN(C(=O)CC(C)S(=O)(=O)c2ccc3c(c2)NC(=O)CO3)CC1 (configuration not stated)	-10	i	-9	-8	-2	-2	1	-17
Cc1ccc(NC(=O)c2ccc3c(=O)n4c(nc3c2)CCC4)cc1F	-38	·	-6	-32	·	9	-4	·
CC1=C[C@@H](C)[C@@H](c2ccccc2)OC1=O	-14	i	-2	12	·	2	5	·
COC(=O)CCNC(=O)c1ccc2[nH]c(C)c(C)c2c1	-13	i	-6	·	34	-1	1	4
CCC1=C(NCc2ccccc2)COC1=O	-10	·	·	-7	·	3	5	·
CCOc1ccccc1N(C)C(=O)c1cc2c(=O)n(CC)c3ccccc3c2s1	6	i	11	2	-5	2	-6	-11
COc1ccccc1/C=C1\SC(=S)N(NS(=O)(=O)c2ccccc2)C1=O	-21	i	9	-13	4	-1	2	5
O=C(CCC(=O)Nc1ccccc1)N/N=C/c1ccc2c(c1)OCO2	-14	i	-8	-11	2	-1	-1	1
COc1ccc(/C=N/OC(=O)Nc2ccc(Cl)cc2)c(OC)c1	-6	i	-4	4	3	2	0	2
COc1ccc(/C=C/C(=O)Nc2cc(S(=O)(=O)N3CCOCC3)ccc2C)cc1OC	22	i	-19	-11	13	-1	-4	1
O=C(CN1C(=O)c2ccccc2S1(=O)=O)c1ccccc1Cl	83*	i	15	-11	2	-1	1	7
CCCNC(=O)c1ccc(Cn2cc(C(F)(F)F)ccc2=O)cc1	16	i	-4	-9	-16	4	7	-12
Cc1cc(NC(=O)COc2coc(CN3CCN(c4ccc(F)cc4)CC3)cc2=O)no1	·	i	-5	-2	·	1	-2	·
CCCOP(=O)(c1ccc(N(C)C)cc1)C(O)c1cc(OC)c(OC)c(OC)c1 (configuration not stated)	-50	i	·	-26	5	0	4	-12
CCc1noc(C)c1C(=O)OCC(=O)N(CCOC)c1c(N)n(Cc2ccccc2)c(=O)[nH]c1=O	-11	i	-15	-3	·	1	1	·
Cc1cc([N+](=O)[O-])ccc1NC1CCCC1	·	i	0	6	-3	-6	-27	3
O=c1oc(-c2ccccc2Br)nc2ccccc12	-2	i	15	-15	-4	3	3	-9
O=C1c2c(O)cc(O)cc2O[C@H](c2ccc(O)c(O)c2)[C@H]1O	16	i	-5	-12	·	-6	-5	·
CCC(C)(C)n1nnnc1C(c1ccc(C)cc1)N1CCN(Cc2ccc3c(c2)OCO3)CC1 (configuration not stated)	-82	i	20	-2	-12	-7	-3	-2
CCn1c(=O)cc(SCC(=O)NCCCN2CCN(c3ccc(F)cc3)CC2)c2ccccc21	26	i	14	-9	3	8	-5	-2
Cc1ccc(SC(C)C(=O)N2CCCC2)cc1 (configuration not stated)	·	i	-4	-8	-4	4	2	-1

Next section:
SMILES	HIV Env fusion	Rce1 inhib	CSC inhib	UUG fidelity	PABP polyA inh	MT1-MMP act inh	MT1-MMP act inh RFP	eIF4H inh	others
CN(CC(=O)Nc1ncn[nH]1)S(=O)(=O)c1ccc(Br)cc1	0	i	-3	-23	-1	1	6	-12
Cc1oc(-c2cccc(C(F)(F)F)c2)nc1CN1CCOCC1	10	i	-3	-6	2	-4	5	0
COC(=O)CSc1cc(C)nc(SC)n1	-20	i	-6	-3	-1	4	3	-1
CC1C=CCC2C(=O)N(c3cccc(C(=O)N4CCCCCC4)c3)C(=O)C12 (configuration not stated)	-20	i	-6	-8	·	-3	-4	·
CCCCS(=O)(=O)/C=C/[C@H]1[C@H](S(=O)(=O)CCCC)[C@H]2C=C[C@@H]1C2	-57	i	-17	6	6	1	2	-8
CCC(CC)C(=O)Nc1c2c(nn1-c1ccc(OC)cc1)CS(=O)C2 (configuration not stated)	-11	i	6	-14	-6	-2	-5	-7
Cc1cc(C(=O)CCC(=O)N2CCN(S(=O)(=O)c3cccs3)CC2)c(C)s1	·	i	10	-5	7	-7	1	4
O=C(COC(=O)c1ccc(O)cc1)NCCCc1ccccc1	17	i	·	-6	4	2	-3	6
OCC[C@@H]1C[C@H](O)[C@@H](O)[C@@]2(OCc3ccc(CO)cc32)O1	15	·	·	2	·	1	4	·
COc1ccc(-c2c(C#N)c(N)nc3c2CCC3)cc1	3	i	·	·	-19	-2	-2	1

Assay outcomes: PubChem BioAssay, several laboratories
